Bioassay records (PubChem BioAssay)
HPGD inh = blocks human HPGD enzyme activity. 4.3% of 150,000 active. AID 894. purified HPGD, NADH fluorescence kinetic, PGE2 substrate. Potency, µM, for the others: top-dose activity change, negative = inhibition, actives largely listed as inhibitors. P15428; active = well fitted inhibition curve with a large enough effect (not every such curve was filed as active); inconclusive = small, poorly fitted or top-dose-only effect, or another doubt; inactive = no such curve, though single readings can be large or run the other way;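 note: top concentration of the series not given in the record; plate controls included wells without enzyme; inactives centre near -10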
Target sequence (P15428 whole entry, looked up): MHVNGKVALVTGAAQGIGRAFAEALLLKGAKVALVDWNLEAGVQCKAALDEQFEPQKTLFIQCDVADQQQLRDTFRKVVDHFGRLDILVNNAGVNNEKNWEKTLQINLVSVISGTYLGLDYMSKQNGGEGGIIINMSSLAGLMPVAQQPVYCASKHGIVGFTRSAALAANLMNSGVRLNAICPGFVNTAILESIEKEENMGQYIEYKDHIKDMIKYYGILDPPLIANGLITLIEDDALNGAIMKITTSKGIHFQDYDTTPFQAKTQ
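NADH formation kinetics: reaction with 30 uM PGE2 and 1 mM NAD+ (final), 20 nM enzyme, Tris-HCl pH 8 with Tween 20, after 15 min compound preincubation at room temperature. Fluorescence change, last versus first of five reads.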
The depositor's hits bear a star; u = inconclusive; & = joins results of further samples. % is set by controls: 0 for no effect and ±100 for the full control effect; potency is the fitted concentration of half-maximal effect. These rows are one share of the data, so the mix of outcomes need not match the whole.

HPGD inh	Molecule
u	Cc1nc2c(C(=O)NCc3ccc4c(c3)OCO4)cnn2c(C)c1Cc1ccc(F)cc1Cl
1%	CCOC(=O)c1[nH]c(C)c(C(=O)N2CCN(C(=O)OCC)CC2)c1CC
-18%	CCCN1CCC(=NNc2ccc(S(=O)(=O)N3CCOCC3)cc2[N+](=O)[O-])CC1
-7%	Cc1ccc(N2C(=O)N(CC(=O)NC(c3ccccc3)c3ccccc3)C(=O)C2C)cc1 (stereo not drawn)
u	CC(C)(Oc1ccc(Cl)cc1)C(=O)Nc1ccc2oc(-c3ccncc3)nc2c1
-14%	COc1ccc(C2CC(C(F)(F)F)n3nc(C(=O)NCc4cn(C)nc4C)c(Cl)c3N2)cc1 (stereo not drawn)
3%	CC(C)C(=O)Nc1ccc(N2CCN(C(=O)c3cccs3)CC2)cc1
-23%	N[C@H](Cc1ccc(O)c(O)c1)C(=O)O
-13%	CCOC(=O)C1CCCN(C(=O)CSCc2ccccc2)C1 (stereo not drawn)
25µM*	O=C(CSc1nnc(-c2cccs2)n1-c1ccccc1)N1CCCC1
-4%	CS(=O)(=O)N(CC(=O)NCC1CCCO1)c1ccc(F)c(Cl)c1 (stereo not drawn)
-26%	COc1cc(OC)cc(-c2nnc(SCc3c(F)cccc3Cl)o2)c1
-12%	CCOC(=O)c1ccc(CNCc2ccccc2)cc1
-23%	COc1cc(N=C2C(=O)N3c4c(cccc42)C(C)=CC3(C)C)cc(OC)c1
-16%	Cc1ccc(C(=O)Nc2nc3ccccc3c(=O)s2)cc1
-14%	O=C1N=C(N2CCOCC2)S/C1=C1\C(=O)N(Cc2ccccc2)c2ccccc21
-6%	CCN1CCN(C(=O)C2CCC(CNS(=O)(=O)c3ccccc3)CC2)CC1 (stereo not drawn)
-3%	O=C(NCCCO)/C(=C\c1ccco1)NC(=O)c1ccc(Br)o1
-9%	Cc1ccccc1-c1cncnc1N(C)Cc1ccco1
-6%	CCc1ccc(N(C(=O)CCC(=O)Nc2cc(C)on2)C(C(=O)NC2CCCC2)c2ccco2)cc1 (stereo not drawn)
-12%	CCOC(=O)C1=C(C)NC(=O)NC1c1ccc(OCC(N)=O)cc1 (stereo not drawn)
u	C/C(=C\C[Si](C)(C)C)CCC=O
-24%	Cc1cccc(-n2nnnc2SC(C)C(=O)NCCC2=CCCCC2)c1 (stereo not drawn)
-14%	CC(=O)/C(=C/Nc1ccc(Oc2ccccc2)cc1)c1ccccc1
-6%	CN(C)C=Nc1c(Br)cc(Br)c2nonc12
-10%	O=C(Nc1cc(C(F)(F)F)cc(C(F)(F)F)c1)c1ccc(Cn2cc(C(F)(F)F)ccc2=O)cc1
-5%	O=C(CSc1nc2ccccc2n1S(=O)(=O)c1cccc([N+](=O)[O-])c1)NCc1cccs1
-9%	O=C(NCCSCc1c(F)cccc1Cl)c1ccc(CN2CCOCC2)cc1
-23%	CCOC(=O)c1[nH]c2ccc(OC)cc2c1NC(=S)N1CCN(c2cccc(C)c2C)CC1
-1%	CC(C)(C)NC(=O)C(c1ccccn1)N(C(=O)c1ccc2c(c1)OCCO2)C1CCCC1 (stereo not drawn)
-18%	CCC(=O)N1CCc2cc(S(=O)(=O)NCCC(=O)N3CCN(c4ccccn4)CC3)ccc21
-6%	O=C(NCCCN1CCCC1=O)c1ccc(OCc2ccccc2)cc1
-4%	Cc1cccc2cc(CN(CCN(C)C)C(=S)Nc3ccccc3)c(=O)[nH]c12
-12%	Cc1ccc(C(=O)Nc2nnc(C3CCCCC3)s2)o1
u	CCNc1ccc(Br)cc(C(=O)/C=C/c2ccc3c(c2)OCO3)c1=O
-14%	CC(C)C1=Nc2cccc3cccc(c23)N1
-9%	CCOC(=O)c1cc(CC)sc1NC(=O)CSc1nc2ccccc2c(=O)n1Cc1ccco1
-20%	CC(=O)Nc1ccc(C(=O)CSc2nc3ccc(C)cc3[nH]2)cc1
-16%	CC(C)CN1C(=S)SC(C)(C)C1n1oc(=O)n(-c2ccccc2)c1=O (stereo not drawn)
-23%	CCOC(=O)c1cnc2c(C)cc(C)cc2c1Nc1ccc(S(=O)(=O)Nc2ncccn2)cc1
-17%	Cc1ccc(SCC(=O)Nc2ccc(-c3nc4ccccc4[nH]3)cc2)cc1
7.1µM*	O=C1NC(=S)S/C1=C\c1ccc(SCc2ccco2)o1
-26%	CCn1c(-c2c[nH]c3ccccc23)n[nH]c1=S
-20%	COc1ccc2cc(C)c3nnc(SCC(=O)Nc4nc(-c5ccc(F)cc5)cs4)n3c2c1
u	O=C(N/N=C/c1cccc(OC(=O)c2ccc3c(c2)OCO3)c1)c1cncc(Br)c1
-10%	COc1ccccc1C1C(C(=O)NCc2ccccc2)=C(C)Nc2ncnn21 (stereo not drawn)
u	CCn1c2ccccc2c2cc(/C=N/NC(=O)c3cccc(C)c3)ccc21
0%	Cc1ccc(-c2cc(C(=O)N/N=C/c3cccnc3)n[nH]2)o1
-2%	CNS(=O)(=O)c1ccc(C)c(S(=O)(=O)NC)c1
-9%	Cc1ccc(N2CCN(S(=O)(=O)N(C)C)CC2)cc1Cl

Rewritten as comma-separated lines: entries from further up
SMILES,HPGD inh
COc1cc(OC)cc(-c2nnc(SCc3c(F)cccc3Cl)o2)c1,-26%
CCOC(=O)c1ccc(CNCc2ccccc2)cc1,-12%
COc1cc(N=C2C(=O)N3c4c(cccc42)C(C)=CC3(C)C)cc(OC)c1,-23%
Cc1ccc(C(=O)Nc2nc3ccccc3c(=O)s2)cc1,-16%
O=C1N=C(N2CCOCC2)S/C1=C1\C(=O)N(Cc2ccccc2)c2ccccc21,-14%
CCN1CCN(C(=O)C2CCC(CNS(=O)(=O)c3ccccc3)CC2)CC1 (stereo not drawn),-6%
O=C(NCCCO)/C(=C\c1ccco1)NC(=O)c1ccc(Br)o1,-3%

(continued)
HPGD inh	Molecule
-26%	CCOc1cccc(SCc2noc(C(=O)NCC3CCCO3)c2C(=O)O)c1 (stereo not drawn)
-11%	Cc1c(C(=O)N2CCC(C)CC2)oc2ccc(S(=O)(=O)N3CCC4(CC3)OCCO4)cc12
-18%&-10%	CCCCC/C=C/C=C1/C(=O)C=C[C@@H]1C/C=C\CCCC(=O)O
-10%	CCOC(=O)N1CCN(c2cc(=O)n(-c3ccc(OCC)cc3)c(=O)[nH]2)CC1
2%	Cc1c(C#N)c2ccccc2n1CCOc1ccccc1F
1%	O=C(O)C1C2C=CC(O2)C1C(=O)NCc1ccc2c(c1)OCO2 (stereo not drawn)
-1%	COc1cc(S(=O)(=O)N2CCOCC2)cc(C(=O)c2nccn2C)c1OC
-16%	CC(C)C(CCN1C(=O)c2ccccc2C1=O)c1ccco1 (stereo not drawn)
-19%	COc1ccccc1NCC(O)Cn1c2ccccc2c2ccccc21 (stereo not drawn)
-7%	CCOC(=O)N1CCN(Cc2nc3c(c(=O)n(C)c(=O)n3C)n2Cc2ccccc2)CC1
-24%	COC(=O)c1cccc(NC(=O)Cc2coc3cc(OC)ccc23)c1
25µM*	COc1ccc2c(c1OC)C(=O)OC2CC(=O)c1ccc(O)cc1 (stereo not drawn)
-9%	CCOC(=O)C(C)(C)N(Cc1cccc(C)c1)S(=O)(=O)c1cccc([N+](=O)[O-])c1
-11%	CC(=O)Nc1ccc(C(=O)Nc2ccc(S(=O)(=O)NCC3CCCO3)cc2)cc1 (stereo not drawn)
-13%	Cc1nc2ccc(N=NC3=C(O)CC(C)(C)CC3=O)cc2s1
-8%	FC(F)(F)c1cc(CN2CCC3(CCNCC3)CC2)cc(C(F)(F)F)c1
-15%	COc1ccccc1N=C(C)C1=C(O)COC1=O
-3%	COc1ccc(OC)cc1
14µM*	O=C(CCCCCn1c(=O)[nH]c2ccsc2c1=O)N1CCCCC1
-14%	S=C(NCc1ccc2c(c1)OCO2)NCc1ccc2c(c1)OCO2
-6%	CCN(c1ccccc1)S(=O)(=O)c1ccc(Cl)c(NC(=O)COC(=O)c2cccc(OC)c2O)c1
-4%&-2%	O=C1c2ccccc2C(=O)C1c1ccc2ccccc2n1
0%	CN(C)CCCn1cnc2cc(Cl)c(Cl)cc21
-8%	CCn1c(O)c(/C=C2\C=NN=C2c2ccc(C)cc2)sc1=S
-6%	CCn1ncc(NC(=O)Nc2cccc(C(F)(F)F)c2)c1C(N)=O

Single values from the results shown.
CCOc1cccc(SCc2noc(C(=O)NCC3CCCO3)c2C(=O)O)c1 (stereo not drawn) | HPGD inh = -26%
O=C(CCCCCn1c(=O)[nH]c2ccsc2c1=O)N1CCCCC1 | HPGD inh = 14µM*
S=C(NCc1ccc2c(c1)OCO2)NCc1ccc2c(c1)OCO2 | HPGD inh = -14%
COc1ccc(OC)cc1 | HPGD inh = -3%
COc1ccccc1N=C(C)C1=C(O)COC1=O | HPGD inh = -15%
Cc1nc2ccc(N=NC3=C(O)CC(C)(C)CC3=O)cc2s1 | HPGD inh = -13%
CCn1c(O)c(/C=C2\C=NN=C2c2ccc(C)cc2)sc1=S | HPGD inh = -8%

Next compounds follow.
HPGD inh	Molecule
-20%	O=C(CN1CCCCCC1)N/N=C/c1ccc(Cl)c(Cl)c1
-11%	COc1cc(S(=O)(=O)Nc2cccc(C)c2)ccc1NC(=O)c1ccncc1
-28%	CCCCN=C1NN=C(c2cc3ccccc3o2)CS1
u	COc1ccc(-c2nc(Cn3c(SCc4cccc(F)c4)nc4ccncc43)c(C)o2)cc1OC
u	Cc1ccc(-c2nc(C#N)c(NCc3ccco3)o2)cc1
-7%	O=C(NCCN1CCOCC1)/C(=C\c1ccc(Br)cc1)NC(=O)c1cccs1
-3%	CCC(c1nnnn1Cc1ccc(F)cc1)N1CCN(C2CCCCC2)CC1 (stereo not drawn)
u	O=C1c2cnc3nc(SCc4cccc(Cl)c4)nn3c2CC2c3ccccc3CCN12 (stereo not drawn)
-28%	c1cn2cc(CSC3CCCCC3)nc2s1
-5%	Cc1nn(C)c(C)c1CN(C)S(=O)(=O)c1ccc2ccccc2c1
-10%	CCOc1nc(Nc2ccc([N+](=O)[O-])cc2)nc(NC(C)(C)C)n1
-13%	COc1ccc(NC(=O)CCc2ccccc2)cc1NC(=O)c1ccco1
1%	COc1ccc(CCNC(=O)COC(=O)c2ccco2)cc1OC
-9%	O=C(N/N=C/c1ccc(Sc2ccccn2)o1)c1cc2ccccc2cc1O
-6%	O=C1c2ccccc2C(=O)N1Nc1ccccc1
-9%	COC(=O)C1CCN(C(=O)CSc2ccccc2)CC1
-29%	Cc1cccc(-c2n[nH]c(=S)n2-c2ccccc2)c1[N+](=O)[O-]
-5%	O=C(CN1CCN(c2ccc(O)cc2)CC1)Nc1cc(S(=O)(=O)N2CCOCC2)ccc1Cl
1%	CCc1ccc(NC(=O)N(Cc2ccco2)C(C)c2cccs2)cc1 (stereo not drawn)
-3%	Cc1c(/C=N\NC(=O)C2(C)CC2(Cl)Cl)cnn1C (stereo not drawn)
-16%	COc1ccc(CCNC(=O)c2cc(CC(C)C)on2)cc1OC
-8%	Cc1ccc2[nH]cc(C(=O)CN3CCN(c4ccccc4F)CC3)c2c1
u	c1ccc2sc(Sc3ncnc4sccc34)nc2c1
-9%	Cc1ccc(SCCC(=O)OCC(=O)Nc2ncc(Cl)cc2Cl)cc1
-12%	Cc1cc(C)c(NC(=O)C2c3ccccc3Oc3ccccc32)c(C)c1

Exported in markdown: part of the list above.
| Molecule | HPGD inh |
| --- | --- |
| Cc1ccc(N2CCN(S(=O)(=O)N(C)C)CC2)cc1Cl | -9% |
| Cc1cccc(-n2nnnc2SC(C)C(=O)NCCC2=CCCCC2)c1 (stereo not drawn) | -24% |

Next section.
HPGD inh	Molecule
u	O=C(NCc1cccnc1)c1cc2ccccc2oc1=O
-20%	CC(Sc1cnc2ccccc2n1)C(=O)O (stereo not drawn)
-8%	O=C(COc1c(F)c(F)cc(F)c1F)NC(=O)NC1CCCC1
u	COc1ccccc1N=c1scc(-c2ccc3c(c2)NC(=O)CO3)n1CC1CCCO1 (stereo not drawn)
-4%	O=c1[nH]c(=S)[nH]c2c1CN(CCCN1CCOCC1)CN2
-2%	C/C(=N\NC(=O)CN(c1ccc(C)cc1)S(C)(=O)=O)c1cccs1
14µM*	COc1c(Br)cc2c(C)c(C(=O)O)oc2c1Br
-5%	COc1ccc(Br)cc1CN1CCCC(C(=O)N2CCCCCC2)C1 (stereo not drawn)
-19%	Cc1nc2ccc(C(=O)OCc3ccccc3Br)cc2nc1C
u	O=C(N/N=C/c1ccc(OCc2ccccc2)cc1)c1cccs1
-27%	O=C(/C=C/NCC(=O)c1ccccc1)c1ccc(Br)cc1
-2%	O=S(=O)(NCC1CCCO1)c1ccc(Oc2ccccc2)cc1 (stereo not drawn)
28µM*	CC(C)Cn1c(-c2ccc(F)cc2)n[nH]c1=S
-3%	CCCn1c(N2CCN(CC(=O)c3c(C)n(C)c4ccccc34)CC2)nc2c1c(=O)[nH]c(=O)n2C
0%	CC(C)CC(O)(CC(C)C)C(=O)NNc1ccccc1
-3%	CS(=O)(=O)Oc1ccc(/C=N/NC(=O)c2ccncc2)cc1
-17%	CC(=NCc1ccncc1)C1=C(O)c2ccccc2C1=O
7%	COc1ccccc1N1CCN(C2CCN(C(=O)c3cccs3)CC2)CC1
-17%	CC(=O)/C(C)=N/O
-15%	COc1cccc(NC(=O)CSc2nc3ccccc3cc2Cc2ccccc2)c1
-15%	COc1ccc(N2C(=O)C3CCCN3C2c2cccc(C)c2)cc1Cl (stereo not drawn)
-10%	O=C(CSc1nnnn1-c1ccccc1)N1CCc2ccccc2C1
14µM*	C=CCn1c(SCc2ccccc2C#N)nnc1-c1cc(Br)ccc1O
-8%	O=C(Nc1ccccc1Sc1ccccc1)c1ccccc1
u	c1ccc2c(c1)oc1c(Nc3ccc4c(c3)OCO4)ncnc12
-3%	C=CCn1c(SCC(N)=O)nnc1-c1cccc(Br)c1
-22%	Cc1nn2c(CN(C(=O)COc3ccccc3)c3ccccc3)nnc2c2ccccc12
-10%	COC(=O)c1ccccc1NC(=O)c1noc2c1CC(C(C)(C)C)CC2 (stereo not drawn)
u	CCOC(=O)c1c(C)n(O)c2ccc(Cl)cc2c1=O
